High-throughput results from PubChem.
Vif A3G = inhibitors of Vif binding to APOBEC3G peptide, primary screen, biochemical, TR-FRET, GST-Vif 1-94, biotin-A3G peptide, dose response retest (AID 1117319); Virion infectivity factor (Human immunodeficiency virus type 1 group M subtype B (isolate …; TR-FRET GST-Vif / biotin-A3G peptide binding; higher % means a stronger effect; test concentration not given here; strong numbers were not always called active; inhibition, %, or IC50 in µM where a hit was titrated; hit rate 0.57% among 260,000;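 active = above the screen mean plus three standard deviations and confirmed in dose response; inconclusive = results disagree or hit not tested in dose response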;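 also: Vif residues 1-94 fused to GST binding biotinylated APOBEC3G peptide 110-148; 0% = full assay without inhibitor and 100% = GST in place of GST-Vif; retest series ran down from 100 µM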
UCH37 DUB inh = inhibitors of human UCH37 deubiquitinase, primary screen, biochemical, Ub-AMC cleavage, fluorescence. Ubiquitin carboxyl-terminal hydrolase isozyme L5 (Homo sapiens), Q9Y5K5. purified proteasome/UCH37. inhibition, % (concentration not given with the values). hit rate 0.33% among 330,000;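 active = mean of two replicates above 20%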;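 also: 0% = compound-free wells with enzyme and 100% = wells lacking proteasome; stock transfer was 100 nL into about 20 µL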
Target sequence (Q9Y5K5 whole entry, looked up): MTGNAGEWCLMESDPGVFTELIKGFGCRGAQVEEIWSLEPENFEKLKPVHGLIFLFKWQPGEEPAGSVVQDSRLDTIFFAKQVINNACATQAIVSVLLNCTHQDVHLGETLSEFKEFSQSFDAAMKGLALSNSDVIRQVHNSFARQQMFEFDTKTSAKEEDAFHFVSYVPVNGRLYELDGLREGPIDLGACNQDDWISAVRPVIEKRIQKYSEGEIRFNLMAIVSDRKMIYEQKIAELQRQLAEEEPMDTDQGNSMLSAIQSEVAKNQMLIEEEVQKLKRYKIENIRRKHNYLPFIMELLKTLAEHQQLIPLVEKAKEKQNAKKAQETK
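Reagent: Ub-AMC substrate; assay system: Proteasome-associated human UCH37 deubiquitinase; controls: no-proteasome and no-compound wells; read-out: % inhibition of Ub-AMC cleavage fluorescence; timing: 30 min preincubation with enzyme, 25 min cleavage at room temperature; signal: AMC fluorescence from Ub-AMC cleavage, excitation 355 nm, emission 460 nm; buffer or medium: Tris-HCl pH 7.4 plus ovalbumin, ATP-MgCl2, DTT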
E coli growth = E. coli growth inhibition, primary screen, OD600; OD600 absorbance (no concentration beside the values); Escherichia coli growth, 23 h; hits give low values; hit rate 0.21% among 330,000;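 active = OD600 absorbance below the run mean of sample wells minus 3.6 SD, in any replicate, cut at about 0.56 in these data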;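 also: stock transfer was 300 nL into about 60 µL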
LANA-H2A inh = blockers of LANA interaction with H2A/H2B – biochemical, FP readout, HTS, primary screen; hit rate 0.6% among 320,000; cell-free LANA-H2A/H2B peptide, fluorescence polarization; AID 2629, 2010; inhibition, % (test concentration not listed); Protein LANA1 (Human herpesvirus 8 type P (isolate GK18)), Q9QR71; in the data active = inhibition mostly above about 10%, no sharp cut-off; inactive = mostly below about 6.7%;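 also: stock transfer was 7.5 nL into about 10 µL; 0% = median of vehicle wells and 100% = median of positive control wells; one replicate is shown; the record names a cut of 25% in any replicate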
A1 inh = caspase 3/7 activation in MEF A1-2A-BIM cells, primary screen, A1 inhibitor project, cell-based, luminescence, HTS. AID 2462, 2010. hit rate 0.066% among 330,000. Caspase-Glo 3/7 luminescence, 3 h; percent of clofoctol response, vehicle zero. caspase activation, % (test concentration not listed);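 active = over half of replicate activation scores above 10%, or exactly half above 10 with the replicate mean above 10; inconclusive = replicate mean below 10 yet half the replicates above 10; inactive = over half of replicates below 10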;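 also: wells of about 30 µL received 50 nL stock; many hits fall short of the cut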
HNF4A DNA FP = change in binding of human HNF4A to DNA, primary screen, biochemical, fluorescence polarization, FITC-DNA; 1 h; activity change, % at 10 µM; hit rate 0.3% among 360,000; AID 1224865, 2016; in the data active = activity change above about 30%, passing the limit was not always enough;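 also: controls were the assay level and a saturating level of protein; the project sought stronger binding though the title names inhibitors; some compounds called inactive have numbers as strong as hits; positive values seem to mean higher polarization but the record does not say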
Target sequence (P41235 whole entry, looked up): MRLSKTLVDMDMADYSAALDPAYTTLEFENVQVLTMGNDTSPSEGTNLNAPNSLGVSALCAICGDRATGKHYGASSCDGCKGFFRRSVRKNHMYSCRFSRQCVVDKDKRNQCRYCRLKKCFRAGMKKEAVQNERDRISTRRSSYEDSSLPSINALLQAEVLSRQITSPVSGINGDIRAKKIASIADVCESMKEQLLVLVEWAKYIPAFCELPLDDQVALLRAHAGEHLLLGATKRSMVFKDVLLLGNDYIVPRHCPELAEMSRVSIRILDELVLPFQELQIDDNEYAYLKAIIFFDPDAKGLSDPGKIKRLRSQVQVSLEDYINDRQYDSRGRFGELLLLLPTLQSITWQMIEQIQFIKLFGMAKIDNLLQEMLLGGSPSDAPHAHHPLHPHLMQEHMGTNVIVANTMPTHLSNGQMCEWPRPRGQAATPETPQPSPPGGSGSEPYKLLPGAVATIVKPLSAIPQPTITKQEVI
B2AR ag = beta2AR agonists driving receptor internalization, primary screen, cell-based, FAP fluorogen, flow cytometry; AID 504454, 2011; Beta-2 adrenergic receptor (Homo sapiens), P07550; hit rate 0.43% among 340,000; response, % (test concentration not listed); Am2.2-beta2AR cells; reference of the scale not given here;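 active = response above a set limit, near 3 SD of response in nonfluorescent compounds, cut at about 42% in these data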;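 also: stock transfer was 100 nL into about 11 µL; a reference agonist was the positive control; negative values mostly stem from fluorescent compounds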
Active calls of the source: *; ? = inconclusive; / = no result given. No enrichment for hits. Share with any hit: about 2.1%.

SMILES	Vif A3G	UCH37 DUB inh	E coli growth	LANA-H2A inh	A1 inh	HNF4A DNA FP	B2AR ag
Cc1ccc(NC(=O)c2ccc3c(c2)C(=O)N(c2ccccc2C)C3=O)nc1	-15.6%	-0.9	0.659	3.3	-0.8	-0.3	3.5
CC(C)C(OC(=O)c1ccco1)C(=O)NC1CCCCC1 (stereo unspecified)	-2.2%	1.0	0.708	-1.1	-0.3	-2.4	3.9
Cc1nc2oc3ccccc3c(=O)c2c(=O)n1Cc1ccccc1	3.8%	4.2	0.671	0.4	0.0	1.4	-3.8
CN(C)c1ccc(C(CNC(=O)c2ccccc2)c2c[nH]c3ccccc23)cc1 (stereo unspecified)	-3.6%	3.1	0.749	1.3	0.1	0.6	25.6
COC(=O)c1cccc(C23CC4(C2)[C@H](CN(Cc2ccc(C(F)(F)F)cc2)[C@@H]4c2ccccc2)C3c2ccc(Cl)nc2)c1 (stereo partly specified)	-3.1%	0.6	/	-3.0	-0.6	7.2	-1.0
Cc1ccc(S(=O)(=O)NC(=O)c2cc(C)n(CC(c3ccccc3)N(C)C)c2C)cc1 (stereo unspecified)	/	4.8	0.653	1.2	-0.6	0.3	-2.6
COC(=O)Cn1cnc2sc3c(c2c1=O)CCCC3	-3.9%	0.1	0.646	0.5	-0.1	-2.8	1.0
Cc1ccccc1NC(=S)N1CCN(c2ccccc2)CC1	/	2.0	0.729	-3.3	0.1	4.9	-2.6
CSc1ccc(-c2nnn(Cc3ccc(C)cc3)n2)cc1	15.7%	-0.7	0.666	8.5	-1.0	0.4	-0.5
COc1ccc2nc(N(CCN(C)C)C(=O)c3ccc(C(=O)c4ccccc4)cc3)sc2c1	-3.3%	-1.8	0.685	-0.4	-1.0	-1.1	-0.8
COc1ccc(C(=O)O/N=C(\N)Cc2cccs2)cc1OC	-2.7%	1.3	0.69	-1.4	-0.2	0.1	-2.5
CN(C)c1ccc(-c2cccc(C3CC=CC4C3C(=O)N(Cc3ccccc3)C4c3ccc(C(F)(F)F)cc3)c2)cc1 (stereo unspecified)	/	-0.6	0.724	0.9	0.6	6.8	4.8
CCc1nnc(NC(=O)CCc2ccccc2OC)s1	/	1.6	0.655	-2.0	0.7	-0.6	11.3
COc1ccc(C(C(=O)NC(C)(C)C)N(C(=O)CCC(=O)Nc2cc(C)on2)c2cccc(C)c2C)cc1 (stereo unspecified)	/	2.0	0.655	-13.4	0.8	-3.5	-1.1
O=C1[C@H](O)[C@@H](O)C(=O)N1Cc1ccccc1	7.3%	-0.1	0.693	6.1	-0.1	2.5	1.1
CC(NC(=S)Nc1ccc(S(=O)(=O)N2CCOCC2)cc1)C1CC2CCC1C2 (stereo unspecified)	4.7%	5.1	0.658	-5.4	1.1	-1.9	-4.9
O=C(Nc1cccnc1)c1ccc(Cl)c([N+](=O)[O-])c1	7.4%	-0.3	0.682	-2.7	0.9	1.5	-6.1
CC1CCC(NC(=O)Cn2c3c(c(-c4ccccc4Cl)cc2=O)CCC3)CC1 (stereo unspecified)	?	-11.7	0.779	2.5	-0.2	2.9	21.9
CN(/N=C/c1ccc(O)cc1O)c1ncc(C(F)(F)F)cc1Cl	0.1%	/	/	-0.2	1.5	-0.1	1.3
O=C(C[C@H]1C/C=C\C[C@@H](Cc2ccc(F)cc2)C(=O)OC[C@@H](Cc2c[nH]c3ccccc23)NC1=O)NCCO	/	-0.5	/	-0.4	-1.3	-6.5	-13.8
COc1ccc(NC(C)=O)cc1CNC(=O)CN1CCOCC1	/	-1.3	0.628	1.6	-0.9	-9.8	-2.8
Cc1ccc(C)c(NC(=O)CSc2nnc(C3CCCCC3)o2)c1	/	/	/	4.9	0.2	1.0	-3.9
CC(C)(C)n1nc2c(c1NC(=O)c1cccc(C(F)(F)F)c1)CS(=O)C2 (stereo unspecified)	10.9%	2.1	0.701	2.0	0.5	20.3	-1.4
CSc1ccc(-c2nc(CN3CCCCC3c3cccnc3)c(C)o2)cc1 (stereo unspecified)	1.8%	-1.9	0.684	-0.8	0.1	9.2	-1.6
O=C(Nc1ccc2c(c1)OCCO2)c1ccc(Cl)c(S(=O)(=O)N2CCOCC2)c1	5.5%	4.5	0.685	-2.3	-0.4	-5.5	16.3
Cc1ccccc1SCc1noc(C(=O)NCC2CCCO2)c1C(=O)O (stereo unspecified)	5.5%	4.8	0.693	4.8	-1.8	2.4	1.5
Clc1ccc(CSCCc2ccncc2)cc1	44.9%	-0.3	0.675	-4.6	0.0	-1.9	1.1
CC1Cc2nc(SCC(=O)Nc3ccc4c(c3)OCO4)n(-c3ccc(F)cc3)c(=O)c2S1 (stereo unspecified)	/	3.9	0.758	-5.3	-0.4	-1.2	-4.8
c1ccc2c(c1)CCCc1cc(NCCN3CCOCC3)nnc1-2	/	2.9	0.656	1.9	0.4	0.6	-3.9
O=C(c1ccc(Cl)c(S(=O)(=O)N2CCCC2)c1)N1CCCC(C(F)(F)F)C1 (stereo unspecified)	-3.6%	-0.3	0.684	2.3	1.2	-3.1	-7.7
CCOc1ccccc1N1CCN(C(=O)Nc2ccc(F)c(Cl)c2)CC1	18.2%	1.3	0.616	1.2	1.3	-0.6	8.6
COc1ccc(C(=O)n2cc(C(=O)c3cc(C)ccc3O)cn2)cc1	6.9%	1.7	0.724	2.0	0.3	2.1	-1.2
Cc1ccccc1NC(=O)Cc1c[nH]c2ccccc12	/	4.0	0.656	2.5	0.3	-0.4	8.1
Cc1cnc(=O)[nH]c1SCC(=O)c1ccc(F)cc1	/	4.6	0.647	5.9	-0.2	2.4	-3.5
CCc1nc(SCC(=O)O)c2c3c(sc2n1)COC(C)(C)C3	-9.2%	2.8	0.651	-0.8	0.4	-2.1	-2.0
COc1ccc(C(=O)NNC(=O)Cc2coc3cc(OC)ccc23)cc1	5.9%	-0.6	0.685	-1.0	-0.5	-0.8	8.1
COc1ccccc1NS(=O)(=O)c1ccc(N2CCOCC2)c(N)c1	2.1%	-0.9	0.716	-4.9	0.7	2.6	14.5
CCCCn1c(N)c(NCCC(C)C)c(=O)[nH]c1=O	/	-25.5	0.69	1.0	0.9	-6.8	-8.1
Cc1ccc(OCC(=O)N/N=C/c2cccnc2)cc1	-4.2%	/	/	-1.6	-0.5	-0.4	6.3
COC(=O)Nc1ccc(S(=O)(=O)NCCO)cc1	-1.7%	0.7	0.644	-6.9	-0.3	-1.3	9.2

Molecules above containing a thiophene ring, fused or not (three):
SMILES	Vif A3G	UCH37 DUB inh	E coli growth	LANA-H2A inh	A1 inh	HNF4A DNA FP	B2AR ag
COC(=O)Cn1cnc2sc3c(c2c1=O)CCCC3	-3.9%	0.1	0.646	0.5	-0.1	-2.8	1.0
COc1ccc(C(=O)O/N=C(\N)Cc2cccs2)cc1OC	-2.7%	1.3	0.69	-1.4	-0.2	0.1	-2.5
CCc1nc(SCC(=O)O)c2c3c(sc2n1)COC(C)(C)C3	-9.2%	2.8	0.651	-0.8	0.4	-2.1	-2.0

Other structures
SMILES	Vif A3G	UCH37 DUB inh	E coli growth	LANA-H2A inh	A1 inh	HNF4A DNA FP	B2AR ag
COc1ccc(/C=N/NC(=O)c2nn(-c3ccc(C)c(C)c3)c(=O)c3ccccc23)cc1	2.9%	/	/	-0.4	-0.5	1.8	3.3
O=c1nc(N2CCOCC2)ccn1Cc1ccc(Br)cc1	-5.5%	-2.3	0.649	5.6	0.2	1.5	-10.1
CCOc1cc(C(c2c(C)[nH][nH]c2=O)c2c(C)[nH][nH]c2=O)ccc1OCc1ccc([N+](=O)[O-])cc1	?	9.5	0.728	8.5	-0.3	2.6	15.6
Cc1nnc(SCCn2c(N(C)Cc3ccccc3)nc3c2c(=O)n(C)c(=O)n3C)s1	2.8%	4.7	0.763	0.7	0.7	-1.6	-17.3
COCCNc1nc(-c2cc(-c3ccccc3)on2)cc(C(C)C)n1	-7.7%	-2.1	0.639	4.2	1.2	2.1	-5.1
COc1ccc(C(=O)N/C(=C\c2cn(C)c3ccccc23)C(=O)OCC(C)C)cc1	/	0.1	0.703	1.7	0.6	1.0	0.6
C=C1C(=O)O[C@H]2C[C@H]1[C@@H](OC(C)=O)C/C(C)=C/CC/C(C)=C\CC[C@]2(C)O	-0.7%	-1.0	0.708	/	/	0.3	16.4
Cc1cc(C)nc(NS(=O)(=O)c2ccc(NC(=O)c3ccc(S(=O)(=O)N(C)C)cc3)cc2)n1	11.3%	1.1	0.673	2.5	0.4	0.8	-11.8
CC(Oc1ccccc1)C(=O)N=C1SC2CS(=O)(=O)CC2N1Cc1ccc(F)cc1 (stereo unspecified)	-1.5%	5.6	0.709	2.4	1.0	0.0	11.8
Cc1nn(CC(=O)O)c2ccccc12	-3.3%	2.5	0.679	0.7	-0.6	-0.7	0.8
Cc1cccc(NC(=O)CC(C)S(=O)(=O)c2ccc3c(c2)NC(=O)CO3)c1C (stereo unspecified)	-2.3%	1.0	0.739	3.4	0.8	1.2	-4.2
O=C(COC(=O)c1ccc(S(=O)(=O)NCc2ccco2)cc1)Nc1ccc(Cl)cn1	/	3.1	0.682	-5.1	-0.4	-4.9	-4.0
C=C(C)n1c(=O)n(Cc2ccccc2C)c2ccccc21	-0.1%	6.1	0.665	1.9	0.9	-0.2	-0.2
C#CCOCCOCCOCCNc1nc(N2CCN(C(=O)[C@H](Cc3ccc(O)cc3)n3cc([C@@H](N)C(C)CC)nn3)CC2)nc(N2CCN(C(=O)[C@H](CCCCN)n3cc([C@@H](N)CC(C)C)nn3)CC2)n1 (stereo partly specified)	8.8%	1.6	/	-6.6	0.6	/	/
COc1cccc(OC)c1C(=O)Nc1ccc(N2CCCC2)cc1	6.0%	0.8	0.671	-0.6	0.5	6.6	-11.0
COc1cc(-c2ccc3c(=O)c4ccccc4sc3c2)cc(OC)c1OC	/	0.0	0.702	2.6	0.3	1.2	9.0
COc1ccc(C)cc1N(C(=O)c1ccc(F)cc1)c1nc2ccccc2s1	/	0.3	0.712	2.5	-0.1	2.9	0.9
COc1ccccc1N(C(=O)CN1C(=O)c2ccccc2S1(=O)=O)C(C(=O)NCC1CCCO1)c1ccc(F)cc1 (stereo unspecified)	7.4%	2.4	0.716	-4.2	-0.2	2.0	-9.5
COc1ccc(C(=O)Nc2cccc(C(C)=O)c2)cc1OC	0.2%	0.5	0.657	-4.4	-0.7	-0.8	0.7
CCOc1cc(NC(=S)N2CCC(C(N)=O)CC2)c(C(=O)OC)cc1OCC	-9.0%	5.2	0.679	-312.1	-0.5	0.8	-6.4
COc1ccc(C(=O)Nc2ccnn2C2CCN(C(=O)CCC(F)(F)F)CC2)cc1	/	1.2	0.652	-9.7	0.5	0.2	4.8
CCCCN1C(=S)SC(C)(C)C1/[N+]([O-])=C/c1cccnc1 (stereo unspecified)	-2.0%	2.6	0.735	0.5	0.5	1.6	-1.6
COc1ccc(NS(=O)(=O)c2cccc(C(=O)NN=Cc3ccc(OC)cc3OC)c2)cc1	-7.3%	-21.1	0.719	-0.1	0.9	6.3	-0.7
Cc1ccc(C2=NN(C(=O)c3cccs3)C(c3ccccc3O)C2)cc1 (stereo unspecified)	-11.7%	-1.1	0.757	-7.5	-1.3	-0.3	-9.8
